Screening data from PubChem.
Mtb MbtI inh = MbtI salicylate synthase inhibitors, primary screen, biochemical, fluorescence intensity. 100,000 tested, 0.89% active. P9WFX0. inhibition, %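 (about 17 µg/mL by stock and volumes)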. AID 493033, 2011. purified MbtI enzyme, fluorescence intensity read-out;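 active = above 50% in both replicates, above 80% if mildly self-fluorescent; inactive = the rest, strongly fluorescent compounds included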;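 also: 0% = mean of negative and 100% = mean of positive controls; one replicate is shown; some compounds called inactive have numbers as strong as hits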
Target sequence (P9WFX0 whole entry, looked up): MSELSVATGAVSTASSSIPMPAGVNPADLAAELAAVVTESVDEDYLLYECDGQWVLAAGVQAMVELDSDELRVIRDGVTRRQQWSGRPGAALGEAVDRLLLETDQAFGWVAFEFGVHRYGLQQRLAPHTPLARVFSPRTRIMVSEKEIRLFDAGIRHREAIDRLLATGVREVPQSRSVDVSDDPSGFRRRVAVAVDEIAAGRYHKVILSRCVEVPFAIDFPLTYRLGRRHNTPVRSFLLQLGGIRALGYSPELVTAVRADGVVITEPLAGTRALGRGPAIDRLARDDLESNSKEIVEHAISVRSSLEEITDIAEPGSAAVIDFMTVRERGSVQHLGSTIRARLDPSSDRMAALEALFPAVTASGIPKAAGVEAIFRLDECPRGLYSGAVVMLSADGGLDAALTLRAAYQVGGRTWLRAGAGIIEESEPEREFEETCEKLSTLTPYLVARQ
Mtb MenB inh = M. tuberculosis MenB inhibitors, primary screen, biochemical, absorbance; MenB enzyme assay, absorbance read-out; some hits fall short of the stated cut; inhibition, %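 (about 12 µg/mL by stock and volumes)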; 100,000 tested, 0.43% active; AID 540299, 2011;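 active = mean of two replicates above 30%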;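 also: 0% = no compound and 100% = wells with inactive enzyme; the first replicate is given; strong numbers were not always called active; inactives centre near -10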
PV pol inh = poliovirus RdRp elongation inhibitors, primary screen, biochemical, fluorescence polarization, total intensity; 150,000 tested, 0.66% active; % elongation, % (compound at 16.7 µg/mL); poliovirus polymerase elongation; stronger effect = lower value; Genome polyprotein (Poliovirus type 1 (strain Mahoney)), P03300; in the data active = % elongation below about 90%; also: some results filed as inactive read as strong as hits
Target sequence (P03300 1749-2209 limits assumed): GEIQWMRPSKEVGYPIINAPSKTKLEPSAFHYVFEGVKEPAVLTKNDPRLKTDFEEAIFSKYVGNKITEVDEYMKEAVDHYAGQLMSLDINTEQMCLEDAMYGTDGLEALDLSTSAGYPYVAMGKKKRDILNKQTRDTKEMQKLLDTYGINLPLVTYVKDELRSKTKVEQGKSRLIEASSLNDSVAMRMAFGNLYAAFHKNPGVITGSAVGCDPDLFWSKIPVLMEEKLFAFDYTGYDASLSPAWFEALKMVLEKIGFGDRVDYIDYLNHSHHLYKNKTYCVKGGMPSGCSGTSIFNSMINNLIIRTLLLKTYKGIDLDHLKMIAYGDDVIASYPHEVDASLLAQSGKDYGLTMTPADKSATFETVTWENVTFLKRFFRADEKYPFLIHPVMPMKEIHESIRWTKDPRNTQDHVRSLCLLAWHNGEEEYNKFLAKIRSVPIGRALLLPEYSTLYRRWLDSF
PV pol inh intensity = recorded beside PV pol inh, whose call it bears; % elongation; measured here: total intensity read-out; formula for this scale not given here;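 total fluorescence in place of polarization; lower means less elongation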
An asterisk follows results filed as active; x = not tested or not shown; & = joins results of further samples.

The line under a structure holds: Mtb MbtI inh	Mtb MenB inh	PV pol inh	PV pol inh intensity
> C=CCn1c(=O)c2c3c(sc2n2c(Nc4ccccc4)nnc12)CCCC3
 : -19	-27	101	102
> Cc1cc(C)cc(CC(CC(=O)Nc2nncs2)C(=O)Nc2nncs2)c1 (stereo not given)
 : -5	-4	101	101
> O=C(OCc1nc2ccccc2s1)c1cc(=O)[nH]c(=O)[nH]1
 : -8	0	100	101
> Cc1ccc(N2C(=O)NC(=O)/C(=C\c3ccco3)C2=O)c(C)c1
 : 1	-13	x	x
> CC(C)S(=O)(=O)c1c(SCC#N)sc(C#N)c1N
 : 2	9	102	102
> CC(=O)N/C(=C\c1ccccc1)C(=O)OCc1c(C)noc1C
 : 7	5	102	102
> CC(C)(C)OC(=O)NC1CCN(S(=O)(=O)c2ccc(Cl)cc2)CC1
 : -2	-3	104	105
> CC(C#N)Sc1nc(C2CCCCC2)n(-c2ccccc2)n1 (stereo not given)
 : -2	-37	100	103
> O=C(O)CNC(=O)c1cc(C(F)(F)F)cc(C(F)(F)F)c1
 : -2	-10	103	101
> COC(=O)c1cc2c(-c3cccs3)nn(-c3ccccc3)c2n1Cc1cccc(C)c1
 : 35	-18	104	109
> CC1=C(C(C)C)Nc2nnnn2C1c1ccc(Br)cc1 (stereo not given)
 : 0	-3	111	112
> CC1=C(c2ccc(C)cc2)S(=O)(=O)NC1=NC(C)C12CC3CC(CC(C3)C1)C2 (stereo not given)
 : 4	1	104	106
> Cc1ccc2nc(-c3ccc(C)o3)c(Nc3ccc4c(c3)OCO4)n2c1
 : 39	-23	101	106
> Cc1cc(OCC(=O)Nc2ccc(N3CCN(C(=O)c4ccco4)CC3)cc2)cc(C)c1Cl
 : -13	-45	101	102
> Cc1ccc(C(=O)OC(c2ccccc2)c2nccc3ccccc23)cc1 (stereo not given)
 : 11	-46	102	105
> CCCCC(CC)C(=O)Nc1nnc(C(C)C)s1 (stereo not given)
 : 70*	1	99	98
> Clc1ccc2c(c1)c1nc3ccccc3nc1n2Cc1nc2ccccc2o1
 : -3	1	99	103
> O=C(c1nc2ncccn2n1)N1CCN(C(c2ccccc2)c2ccccc2)CC1
 : -12	29	103	103
> Clc1ccc(-n2ccc3ccccc32)cc1
 : -5	-8	100	100
> COc1ccc(-n2ncc3c(NCCC4=CCCCC4)ncnc32)cc1
 : 18	-8	111&99	112&100

Carrying on.
The line under a structure holds: Mtb MbtI inh	Mtb MenB inh	PV pol inh	PV pol inh intensity
> CC(NC(=O)CN1CCN(C(=O)c2cccs2)CC1)c1ccc(F)cc1F (stereo not given)
 : -4	0	107	106
> O=C(Cc1ccc(Oc2ccccc2)cc1)c1ccccc1
 : -10	-11	108	106
> CC1S/C(=N\NC(=O)CNc2cccc(Cl)c2)N(c2ccccc2)C1=O (stereo not given)
 : -8	11	101	102
> Cc1nnc(SCC(=O)Nc2cc(C(F)(F)F)ccc2N2CCOCC2)n1C1CC1
 : -7	-4	102	109
> O=C(CSc1nnc(-c2ccncc2)n1Cc1ccco1)N(c1ccccc1)c1ccccc1
 : -16	9	101	101
> NC(=O)CSc1ncnc2sc(-c3ccccc3)cc12
 : 17	5	105	118
> O=C1Nc2ccccc2S(=O)(=O)N1Cc1ccccc1
 : -26	-9	101	101
> Cc1cc(=O)[nH]c(NNC(=O)NC2CCCCC2)n1
 : -9	-16	103	104
> O=C(O)C1CC(=O)N(Cc2ccccc2)C(=Nc2ccc(F)cc2)S1 (stereo not given)
 : x	3	101	95
> N#CC1=C(N)N(c2ccc(S(N)(=O)=O)cc2)C2=C(CCC2)C1(C(F)(F)F)C(F)(F)F
 : -3	-9	102	105
> O=c1cc(N2CCCC2)c2ccccc2o1
 : x	-12	100	105
> COC(=O)Cn1ncc2c3ccccc3n(Cc3ccccc3F)c2c1=O
 : 16	4	102	99
> CN(C)S(=O)(=O)c1ccc(C(=O)OCC2CCCO2)cc1 (stereo not given)
 : -4	2	104	105
> OCc1cn(-c2ccccc2)nc1-c1ccccc1
 : -19	x	100	100
> COc1ccccc1N=C(NO)C(=Nc1ccccc1OC)NO
 : x	-9	101	111
> O=c1c(O)c(-c2ccc(O)cc2)oc2cc(O)cc(O)c12
 : -2	5	100	103
> Nc1nc(NCc2c(F)cccc2Cl)nn1-c1ccccc1
 : 12	-14	100	88
> CN1CCC(=NOC(=O)c2ccc(Cl)cc2)CC1
 : -6	-13	102	101
> CCOc1ccc(-n2c(N)c(C(=O)N3CCN(C)CC3)sc2=S)cc1
 : 0	-43	99	101
> CCN(CC)C(=O)Cn1ncc2c1-c1cc(C)ccc1OC2
 : 9	2	103	103

More structures follow.
The line under a structure holds: Mtb MbtI inh	Mtb MenB inh	PV pol inh	PV pol inh intensity
> COC(=O)c1ccsc1NC(=O)/C=C\C(=O)O
 : 5	-22	x	x
> COc1cc(/C=C(\C#N)c2ccc(Cl)cc2)ccc1OC(=O)C1COc2ccccc2O1 (stereo not given)
 : x	-19	104	110
> O=C(CN1CCN(c2ccccc2Cl)CC1)NC(=O)Nc1ccccc1F
 : -12	-25	102	108
> CCSc1nc(-c2ccccc2)cc(C)c1C#N
 : 21	8	101	100
> CCOC(=O)N1CCN(C(=O)CCN2c3ccccc3Sc3ccccc32)CC1
 : 0	-33	102	99
> NNC(=O)CSc1c(-c2cccs2)[nH]c2ccccc12
 : -19	38*	99	101
> O=C1c2ccccc2S(=O)(=O)NN1CC(=O)N1CCCc2ccccc21
 : 16	-74	102	103
> Cc1nn(C2CCS(=O)(=O)C2)c(Cl)c1/C=C/C(=O)OCc1csc(-c2ccccc2)n1 (stereo not given)
 : 18	-20	x	x
> FC(F)Oc1cc(C(F)(F)F)cc(C(F)(F)F)c1
 : 5	3	99	105
> O=C(NCc1cccs1)c1cc(-c2cccs2)on1
 : -11	-6	102	107
> O=C1C(=Cc2ccc3c(c2)OCO3)C(=O)c2ccccc21
 : -4	-3	94	115
> OC1Cc2cccc3cccc1c23 (stereo not given)
 : 5	0	100	98
> O=C(Oc1c(CN2CCOCC2)cc(Cl)c2cccnc12)c1ccccc1Cl
 : -2	-44	105	101
> Cc1ccc2nc(N3CC(=O)N(CCc4ccccc4)C(=O)C3)c3nncn3c2c1
 : 41	-21	102	108
> CCc1c(C)nc2n(c1=O)C(CS(=O)(=O)c1ccc(C)cc1)CS2 (stereo not given)
 : -3	-19	103	99
> COc1ccc(N2CCN(C(=O)CN(c3cccc(C(F)(F)F)c3)S(C)(=O)=O)CC2)cc1
 : -6	-33	101	99
> CC(C)S(=O)(=O)/C(C#N)=C/N1CCC(C(F)(F)F)CC1
 : -3	-37	118	116
> Cc1ccc(C(=O)NC2CCCCCCC2)cc1I
 : -7	-8	101	108
> O=C(NNc1ccc(F)cc1)c1cc(Cl)nc(OCC(F)(F)F)c1
 : 1	-4	102	100
> CN(C)c1ccc(/C=C/C(=O)C(C(=O)c2ccccc2)=C2SCCS2)cc1
 : x	-8	138	157

(cont.)
Abbreviations – A = Mtb MbtI inh; B = Mtb MenB inh; C = PV pol inh; D = PV pol inh intensity
O=C(c1ccc(-c2cccc(C(F)(F)F)c2)o1)N1CCOCC1
  A: 18 | B: 19 | C: 102 | D: 104
CC(C)(C)c1ccc(-c2noc(CSc3n[nH]c(=O)n3C3CC3)n2)cc1
  A: -2 | B: 7 | C: 102 | D: 104
COc1cccc(Oc2c(C(F)(F)F)oc3cc(OC)ccc3c2=O)c1
  A: -7 | B: -38 | C: 105 | D: 104
CN(C)C1=NC(C(F)(F)F)(C(F)(F)F)N=C(c2ccccc2)O1
  A: 1 | B: -6 | C: 107 | D: 105
S=C(c1ccc(-c2ccc(Cl)cc2)o1)N1CCOCC1
  A: 77* | B: -30 | C: 99 | D: 99
Oc1c(/C=N/N2CCOCC2)cc2c3c1CCCN3CCC2
  A: -3 | B: -23 | C: 131 | D: 202
COC(=O)CCn1ccnc1C
  A: 11 | B: 15 | C: 98 | D: 98
O=C(CN1CC(=O)Oc2ccccc21)OCC(=O)c1ccccc1
  A: -4 | B: -74 | C: 106 | D: 109
NS(=O)(=O)c1ccc(Nc2nc3nonc3nc2Nc2ccc(S(N)(=O)=O)cc2)cc1
  A: 25 | B: 29 | C: 99 | D: 101
O=C(c1ccc2c(c1)N(Cc1ccc(F)cc1)CCS2)N1CCCCC1
  A: 64 | B: -21 | C: 100 | D: 105

The list goes on, overlapping the part above by 4 compounds.
Abbreviations – A = Mtb MbtI inh; B = Mtb MenB inh; C = PV pol inh; D = PV pol inh intensity
COC(=O)CCn1ccnc1C
  A: 11 | B: 15 | C: 98 | D: 98
O=C(CN1CC(=O)Oc2ccccc21)OCC(=O)c1ccccc1
  A: -4 | B: -74 | C: 106 | D: 109
NS(=O)(=O)c1ccc(Nc2nc3nonc3nc2Nc2ccc(S(N)(=O)=O)cc2)cc1
  A: 25 | B: 29 | C: 99 | D: 101
O=C(c1ccc2c(c1)N(Cc1ccc(F)cc1)CCS2)N1CCCCC1
  A: 64 | B: -21 | C: 100 | D: 105
Cc1ccc(C(=O)Nc2cc(C(C)(C)C)nn2C)cc1
  A: 11 | B: -3 | C: 102 | D: 102
Cc1nnc(Nc2cccc(Cl)c2C)s1
  A: -7 | B: -17 | C: 103 | D: 109
COC(=O)c1c(C)oc2ccc(OCC#N)cc12
  A: -7 | B: -5 | C: 102 | D: 105
Cc1ccc(NC(=O)CC2Sc3ccccc3NC2=O)cc1 (stereo not given)
  A: -2 | B: 10 | C: 98 | D: 103
COCCNC(=O)c1ccccc1CSc1nc2ccccc2o1
  A: 26 | B: -4 | C: 105 | D: 108
CCOc1ccc(CN(C)CC(=O)NC2(C#N)CCCC2)cc1
  A: -2 | B: -24 | C: 103 | D: 107
CC1Cc2ccccc2N1C(=O)COC(=O)c1ccccc1 (stereo not given)
  A: -7 | B: x | C: 101 | D: 106
O=C(/C=C/c1ccc(F)cc1)N(CCO)Cc1ccccc1
  A: 4 | B: x | C: 103 | D: 108
COc1ccccc1C(CCNCc1ccccc1)c1ccco1 (stereo not given)
  A: -3 | B: -22 | C: 102 | D: 96
CCN(CC(=O)Nc1ccc2c(c1)OCCO2)CC(=O)c1c(C)[nH]c2ccccc12
  A: 9 | B: -10 | C: 107 | D: 112

(cont.)
Abbreviations – A = Mtb MbtI inh; B = Mtb MenB inh; C = PV pol inh; D = PV pol inh intensity
CCOC(=O)c1ccc2nc(NC(=O)CSC3=NC(=O)C(CC)C(=O)N3)sc2c1 (stereo not given)
  A: 6 | B: 16 | C: 101 | D: 101
CCOC(=O)CSc1nc2ccccc2c(=O)n1Cc1ccco1
  A: -1 | B: 8 | C: 104 | D: 112
c1ccc(N2CCN(c3nc4ccccc4n4cnnc34)CC2)cc1
  A: -5 | B: -19 | C: 100 | D: 104
Cc1ccc(C(=O)CC(C(=O)O)n2cccn2)cc1 (stereo not given)
  A: 8 | B: -8 | C: 104 | D: 106
Cc1ccoc1CC[N+](C)(C)C
  A: x | B: -9 | C: 104 | D: 112
CC1CN(C(=O)COC(=O)/C=C/c2ccccc2)CC(C)O1 (stereo not given)
  A: -2 | B: x | C: 103 | D: 106
CCCN(C(=O)COc1ccccc1F)c1c(N)n(Cc2ccccc2)c(=O)[nH]c1=O
  A: 12 | B: 10 | C: 100 | D: 97
Cc1cccc(N2CCN(CCNC(=O)c3c(C)nn(-c4ccc(F)cc4)c3-n3cccc3)CC2)c1C
  A: -8 | B: -5 | C: 100 | D: 102
C=CCOc1cc(C)nc(-c2ccccc2O)n1
  A: -6 | B: -30 | C: 101 | D: 103
CCOc1ccc(CNCc2cn[nH]c2-c2ccccc2)cc1
  A: -10 | B: 6 | C: 101 | D: 105

By substructure, those above with a CF3 group.
Abbreviations – A = Mtb MbtI inh; B = Mtb MenB inh; C = PV pol inh; D = PV pol inh intensity
O=C(O)CNC(=O)c1cc(C(F)(F)F)cc(C(F)(F)F)c1
  A: -2 | B: -10 | C: 103 | D: 101
Cc1nnc(SCC(=O)Nc2cc(C(F)(F)F)ccc2N2CCOCC2)n1C1CC1
  A: -7 | B: -4 | C: 102 | D: 109
N#CC1=C(N)N(c2ccc(S(N)(=O)=O)cc2)C2=C(CCC2)C1(C(F)(F)F)C(F)(F)F
  A: -3 | B: -9 | C: 102 | D: 105
FC(F)Oc1cc(C(F)(F)F)cc(C(F)(F)F)c1
  A: 5 | B: 3 | C: 99 | D: 105
COc1ccc(N2CCN(C(=O)CN(c3cccc(C(F)(F)F)c3)S(C)(=O)=O)CC2)cc1
  A: -6 | B: -33 | C: 101 | D: 99
CC(C)S(=O)(=O)/C(C#N)=C/N1CCC(C(F)(F)F)CC1
  A: -3 | B: -37 | C: 118 | D: 116
O=C(NNc1ccc(F)cc1)c1cc(Cl)nc(OCC(F)(F)F)c1
  A: 1 | B: -4 | C: 102 | D: 100
O=C(c1ccc(-c2cccc(C(F)(F)F)c2)o1)N1CCOCC1
  A: 18 | B: 19 | C: 102 | D: 104
COc1cccc(Oc2c(C(F)(F)F)oc3cc(OC)ccc3c2=O)c1
  A: -7 | B: -38 | C: 105 | D: 104
CN(C)C1=NC(C(F)(F)F)(C(F)(F)F)N=C(c2ccccc2)O1
  A: 1 | B: -6 | C: 107 | D: 105
